High-throughput results from PubChem BioAssay.
DUX4 txn inh = blocks DUX4-driven transcriptional activation | AID 1224904 | 293T-iDUX4 ZSCAN4-Gaussia luciferase reporter, 24 h; active compounds read low | activity change, negative = inhibition, % (concentration not given with the values) | actives 0.8% (n = 37,000);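 active = -10% or lower and over 25 points stronger than a control reporter; inconclusive = -10% or lower with a smaller gap; inactive = above -10%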;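 also: 0% = median of neutral control wells and -100% = median of positive control wells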
DUX4 txn inh difference = second read-out of DUX4 txn inh, no call of its own (marks repeat the call); Gaussia minus Italica difference, %; measured here: selective DUX4 reporter inhibition;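 worked out from the two reporters; negative = selective loss of the DUX4 reporter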
DUX4 txn inh control = recorded beside DUX4 txn inh, whose call it bears; activity change, negative = inhibition, %; measured here: Italica tet-on control reporter;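 0 = neutral control and -100 = positive control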
* hit, by the source's call; ? = inconclusive; . = not tested or not shown. The list is partial (hit frequency here may not be typical).

1	O=C(Nc1ccc2c(c1)[C@H]1C[C@@H](CC(=O)N3CCc4ccccc4C3)O[C@@H](CO)[C@H]1O2)C1CCOCC1
2	COc1ccc2c3c([nH]c2c1)[C@@H](CO)N(C(=O)Nc1ccccc1F)CC31CCN(C(=O)C2CC2)CC1
3	Cc1noc(C)c1S(=O)(=O)Nc1ccc2c(c1)C(=O)N([C@@H](C)CO)C[C@H](C)[C@@H](CN(C)C(=O)Nc1ccc3c(c1)OCO3)OCCCC[C@@H](C)O2
4	CCc1csc(N2[C@H](C#N)[C@@H](c3ccc(-c4cccc(F)c4)cc3)[C@@H]2CO)n1
5	C/C=C/c1ccc([C@@H]2[C@H]3CN(C(=O)Nc4ccccc4F)CC(=O)N3[C@H]2CO)cc1
6	CCCNC(=O)[C@H]1[C@H](CO)[C@H]2Cn3c(ccc(-c4ccccc4)c3=O)[C@@H]1N2C(=O)CC1CC1
7	CCCN1[C@@H]2c3ccc(C4=CCCC4)c(=O)n3C[C@@H]2[C@@H](CO)[C@@H]1C(=O)NCc1cccc(OC)c1
8	C/C=C/c1cccc(-c2nc(C(=O)NCCC)cc3c2[C@@H](CCO)N([S@](=O)C(C)(C)C)C3)c1

compound no.	1	2	3	4	5	6	7	8
DUX4 txn inh	2	13	-6	2	-2	-6	8	0
DUX4 txn inh difference	1	9	-6	-1	-4	-7	3	2
DUX4 txn inh control	0.2	4.1	0.0	3.4	1.2	0.5	5.6	-1.8

9	COc1ccc(-c2ccc3c(c2)[C@H]2[C@H](CCN2C(=O)Cc2ccncc2)[C@H](CO)N3)cc1
10	CC(C)NC(=O)N[C@@H]1C=C[C@@H](CC(=O)NCc2ccc(Oc3ccccc3)cc2)O[C@@H]1CO
11	N#C[C@@H]1N[C@H](CO)[C@@H]1c1ccccc1
12	C[C@@H]1CN([C@@H](C)CO)C(=O)c2cccc(N(C)C)c2O[C@H]1CN(C)C(=O)NC1CCCCC1
13	CCCN1[C@@H]2c3ccc(-c4ccccc4)c(=O)n3C[C@@H]2[C@@H](CO)[C@@H]1C(=O)N1CCCCC1
14	Cc1noc(C)c1NC(=O)Nc1ccc2c(c1)C(=O)N([C@H](C)CO)C[C@@H](C)[C@@H](CN(C)C(=O)Nc1cccc3ccccc13)O2
15	CCCNC(=O)C[C@H]1CC[C@H]2[C@@H](COc3ccc(NC(=O)NC(C)C)cc3C(=O)N2C)O1
16	CC(C)CC#Cc1ccc2c(c1)O[C@@H](CN(C)Cc1cncnc1)[C@@H](C)CN([C@H](C)CO)S2(=O)=O

compound no.	9	10	11	12	13	14	15	16
DUX4 txn inh	-5	6	-1	-2	2	-4	8	3
DUX4 txn inh difference	-12	6	-4	-3	4	-2	-3	-4
DUX4 txn inh control	6.6	0.3	2.7	0.8	-2.2	-1.4	11	6.7

17	C[C@@H]1CN([C@@H](C)CO)C(=O)CCCn2cc(nn2)CO[C@H]1CN(C)C(=O)Nc1ccccc1C(F)(F)F
18	C[C@H](O)C#Cc1ccc([C@@H]2[C@H](CO)N3CCCCN(C(=O)c4ccc5c(c4)OCO5)C[C@@H]23)cc1
19	C[C@@H]1CC=CC[C@H](c2ccc(F)cc2)NC(=O)[C@H](C)N(C)C(=O)c2ccccc2O1 (mixture of isomers)
20	COc1cccc(-c2ccc([C@H]3[C@H](CO)N(C(C)=O)C34CN(C(C)=O)C4)cc2)c1
21	CN(C)CC(=O)N1CCCCN2[C@H](CO)[C@H](c3ccc(-c4ccccc4)cc3)[C@H]2C1
22	C[C@@H]1CN([C@H](C)CO)C(=O)c2cc(NS(=O)(=O)c3cn(C)cn3)ccc2O[C@@H](C)CCCCO[C@@H]1CN(C)S(=O)(=O)c1ccc(Cl)cc1
23	CCCC#Cc1ccc([C@@H]2[C@H]3CN(C(=O)Nc4cc(F)ccc4F)CC(=O)N3[C@H]2CO)cc1
24	COc1cccc(NC(=O)N2C[C@H](O)COC[C@H]3O[C@H](CC(=O)NCCCN4CCOCC4)CC[C@@H]32)c1

compound no.	17	18	19	20	21	22	23	24
DUX4 txn inh	7	14	-1	13	18	2	-4	6
DUX4 txn inh difference	3	19	0	12	18	-3	1	-1
DUX4 txn inh control	4.5	-4.9	-0.4	0.4	-0.3	4.4	-5.1	6.5

25	O=C(C[C@@H]1C[C@@H]2c3cc(NC(=O)NC4CCCCC4)ccc3O[C@@H]2[C@H](CO)O1)NCc1ccccn1
26	CN1CCN(C(=O)C[C@H]2CC[C@@H]3[C@@H](COc4ccc(NC(=O)C5CCOCC5)cc4C(=O)N3C)O2)CC1
27	CS(=O)(=O)N1[C@H](C#N)[C@H](c2ccc(-c3ccccc3F)cc2)[C@@H]1CO
28	O=C(NC1CCCC1)[C@@H]1[C@@H](CO)[C@@H]2Cn3c(ccc(-c4cccnc4)c3=O)[C@@H]2N1CCc1ccccc1
29	CCC(=O)N1[C@@H](CO)[C@@H]2c3ccccc3N(S(=O)(=O)c3ccccc3)C[C@@H]21
30	CO[C@H]1CN(C)C(=O)c2ccc(NS(C)(=O)=O)cc2OC[C@@H](C)N(Cc2ccccc2)C[C@@H]1C
31	Cc1noc(C)c1S(=O)(=O)Nc1ccc2c(c1)CC(=O)N([C@H](C)CO)C[C@@H](C)[C@@H](CN(C)Cc1ccc(Oc3ccccc3)cc1)O2
32	COc1cccc(-c2ccc3n(c2=O)C[C@@H]2[C@@H](CO)[C@H](C(=O)N4CCOCC4)N[C@H]32)c1

compound no.	25	26	27	28	29	30	31	32
DUX4 txn inh	-5	-3	1	-9	-3	3	-1	5
DUX4 txn inh difference	-6	-8	1	-8	-1	2	0	2
DUX4 txn inh control	0.9	5.6	0.4	-0.4	-2.2	1.7	-0.7	2.7

33	C[C@H]1CN([C@@H](C)CO)C(=O)c2cc(/C=C/c3ccccc3)cnc2O[C@@H]1CN(C)C(=O)Cc1ccccn1
34	O=C1[C@H](Cc2ccc(C(F)(F)F)cc2)CCn2cc(nn2)COC[C@@H]2CCCCN12
35	COc1ccccc1-c1ccc2c(c1)[C@H]1[C@H](CCN1C(=O)C1CCOCC1)[C@H](CO)N2
36	Cc1cccc(-c2ccc([C@@H]3[C@@H](CO)N4CCCCN(C(=O)NC(C)C)C[C@H]34)cc2)c1
37	O=C(C[C@H]1C[C@H]2c3cc(NC(=O)Nc4ccccc4)ccc3O[C@H]2[C@@H](CO)O1)NC1CCCC1
38	CCCNC(=O)N1[C@H](CO)[C@H](c2ccccc2C2=CCCCC2)[C@@H]1C#N
39	CO[C@H]1CN(C)C(=O)c2cc(NC(=O)c3ccc4c(c3)OCO4)ccc2OC[C@H](C)NC[C@H]1C
40	CN1[C@@H]2Cn3c(ccc(-c4ccncc4)c3=O)[C@H]1[C@@H](C(=O)N1CCC(Cc3ccccc3)CC1)[C@@H]2CO

compound no.	33	34	35	36	37	38	39	40
DUX4 txn inh	0	0	?	7	-2	2	0	-4
DUX4 txn inh difference	1	4	.	6	0	2	0	-19
DUX4 txn inh control	-0.7	-3.5	.	1.4	-1.3	0.2	0.4	15

41	C/C=C/c1ccc2c(c1)O[C@@H](CN(C)C(=O)c1cccc(F)c1)[C@@H](C)CN([C@@H](C)CO)S2(=O)=O
42	O=C(c1cccnc1)N1CC2(C1)[C@@H](c1ccccc1)[C@@H](CO)N2Cc1ccncc1
43	CO[C@@H]1CN(C)C(=O)c2cc(NC(=O)c3ccccc3F)ccc2OC[C@H](C)NC[C@H]1C
44	Cc1noc(C)c1NC(=O)N(C)C[C@@H]1Oc2c(cccc2N(C)C)C(=O)N([C@@H](C)CO)C[C@H]1C
45	CO[C@H](CN(C)S(=O)(=O)c1cn(C)cn1)[C@H](C)CN(C(=O)Nc1ccc(C(F)(F)F)cc1)[C@H](C)CO

compound no.	41	42	43	44	45
DUX4 txn inh	-1	11	2	-4	0
DUX4 txn inh difference	3	9	7	0	-1
DUX4 txn inh control	-3.9	2.4	-4.9	-4.5	0.8

Grouped by structure: those above with a halogen (twelve)
2	COc1ccc2c3c([nH]c2c1)[C@@H](CO)N(C(=O)Nc1ccccc1F)CC31CCN(C(=O)C2CC2)CC1
4	CCc1csc(N2[C@H](C#N)[C@@H](c3ccc(-c4cccc(F)c4)cc3)[C@@H]2CO)n1
5	C/C=C/c1ccc([C@@H]2[C@H]3CN(C(=O)Nc4ccccc4F)CC(=O)N3[C@H]2CO)cc1
17	C[C@@H]1CN([C@@H](C)CO)C(=O)CCCn2cc(nn2)CO[C@H]1CN(C)C(=O)Nc1ccccc1C(F)(F)F
19	C[C@@H]1CC=CC[C@H](c2ccc(F)cc2)NC(=O)[C@H](C)N(C)C(=O)c2ccccc2O1 (mixture of isomers)
22	C[C@@H]1CN([C@H](C)CO)C(=O)c2cc(NS(=O)(=O)c3cn(C)cn3)ccc2O[C@@H](C)CCCCO[C@@H]1CN(C)S(=O)(=O)c1ccc(Cl)cc1
23	CCCC#Cc1ccc([C@@H]2[C@H]3CN(C(=O)Nc4cc(F)ccc4F)CC(=O)N3[C@H]2CO)cc1
27	CS(=O)(=O)N1[C@H](C#N)[C@H](c2ccc(-c3ccccc3F)cc2)[C@@H]1CO
34	O=C1[C@H](Cc2ccc(C(F)(F)F)cc2)CCn2cc(nn2)COC[C@@H]2CCCCN12
41	C/C=C/c1ccc2c(c1)O[C@@H](CN(C)C(=O)c1cccc(F)c1)[C@@H](C)CN([C@@H](C)CO)S2(=O)=O

compound no.	2	4	5	17	19	22	23	27	34	41
DUX4 txn inh	13	2	-2	7	-1	2	-4	1	0	-1
DUX4 txn inh difference	9	-1	-4	3	0	-3	1	1	4	3
DUX4 txn inh control	4.1	3.4	1.2	4.5	-0.4	4.4	-5.1	0.4	-3.5	-3.9

43	CO[C@@H]1CN(C)C(=O)c2cc(NC(=O)c3ccccc3F)ccc2OC[C@H](C)NC[C@H]1C
45	CO[C@H](CN(C)S(=O)(=O)c1cn(C)cn1)[C@H](C)CN(C(=O)Nc1ccc(C(F)(F)F)cc1)[C@H](C)CO

compound no.	43	45
DUX4 txn inh	2	0
DUX4 txn inh difference	7	-1
DUX4 txn inh control	-4.9	0.8
